PINK1 modulator: A Quantitative High throughput Screen to Identify Chemical Modulators of PINK1 Expression; PINK1 immunofluorescence, high-content cytometry, 24 h; Potency, µM (highest dose often 76.6 µM), inactives show at the highest dose activation (PINK1 increase), usual class: activators; 0.2% of 410,000 active; active = well fitted activation curve with a large enough effect; inconclusive = small, poorly fitted or top-dose-only effect; inactive = flat fitted curve, though single readings scatter; cell line not stated here;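 note: potency is the fitted concentration of half-maximal effect; % of control where 0% means no effect; nearly all actives have a fitted effect of over 65% in size; a mitochondrial uncoupler was the plate control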
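Fluorescence from anti-PINK1 antibody, together with nuclear and cell stains, was scanned on a laser-scanning cytometer. Before staining, stable-line cells were incubated 24 hours with compounds at 5 concentrations; primary antibody 12 h at 10 degrees C.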
TRPV1 PAM: HTS Assay for Compounds that Act as Potentiators of the Vanilloid Receptor 1; Transient receptor potential cation channel subfamily V member 1 (Homo sapiens), Q8NER1; TRPV1-expressing cells, Fluo-8 calcium influx, capsaicin EC20 potentiation; host cell line not named in the record; control for the full effect not named in the record; potentiation, % at 8.33 µM; 0.02% of 320,000 active; active means potentiation above 80%; inconclusive means 30% to 80%; inactive means below 30%; note: 0% is about no effect
Target sequence (Q8NER1 whole entry, looked up): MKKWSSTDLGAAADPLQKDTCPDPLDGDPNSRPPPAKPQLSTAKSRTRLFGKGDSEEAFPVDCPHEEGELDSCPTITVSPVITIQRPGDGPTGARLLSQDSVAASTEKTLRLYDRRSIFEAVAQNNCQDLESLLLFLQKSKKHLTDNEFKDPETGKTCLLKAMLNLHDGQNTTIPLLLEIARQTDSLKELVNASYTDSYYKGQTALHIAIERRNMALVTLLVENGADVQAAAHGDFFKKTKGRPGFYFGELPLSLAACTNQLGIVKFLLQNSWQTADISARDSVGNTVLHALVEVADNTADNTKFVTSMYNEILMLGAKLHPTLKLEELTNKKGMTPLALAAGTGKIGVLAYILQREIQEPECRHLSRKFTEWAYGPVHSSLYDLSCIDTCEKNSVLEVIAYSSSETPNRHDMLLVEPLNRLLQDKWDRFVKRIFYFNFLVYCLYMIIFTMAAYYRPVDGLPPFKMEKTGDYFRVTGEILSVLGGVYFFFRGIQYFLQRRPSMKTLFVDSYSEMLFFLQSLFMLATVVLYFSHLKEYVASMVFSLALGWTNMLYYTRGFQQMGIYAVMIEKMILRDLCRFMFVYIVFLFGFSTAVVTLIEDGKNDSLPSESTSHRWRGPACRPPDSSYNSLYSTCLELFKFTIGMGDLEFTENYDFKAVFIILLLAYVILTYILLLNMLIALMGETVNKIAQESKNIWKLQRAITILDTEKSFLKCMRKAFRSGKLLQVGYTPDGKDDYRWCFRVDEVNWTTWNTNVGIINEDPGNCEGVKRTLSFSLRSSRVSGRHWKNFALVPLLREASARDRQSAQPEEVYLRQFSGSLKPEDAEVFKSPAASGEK
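Fluo-8 calcium influx in TRPV1-expressing cells, kinetic read (ex 480/em 520 nm). Compound added and read 3 min for agonist activity, followed by capsaicin at EC20 final and 2 min further read for enhancement.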
TRPML1 blocker: qHTS for Inhibitors of the Human Mucolipin Transient Receptor Potential 1 (TRPML1); TRPML1-inducible cells, Ca2+ dye fluorescence, FDSS; hits give low values; inhibition of EC80 agonist-evoked calcium signal; activity change, negative = inhibition, % (test concentration not listed); 0.02% of 390,000 active; AID 624415, 2012; in the data active means activity change below about -50%; inconclusive means about -30% to -50%; inactive means above about -30%;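 note: stimulus is agonist 54-4 at its EC80 concentration; % is set by controls: 0 for no effect and ±100 for the full control effect; compound concentration not given in the record; the text of the record puts the active cut at -80%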
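Calcium fluorescence in TRPML1-DL cells induced overnight with Tet: a 110 s read after compound pin addition, then a 110 s antagonist read after challenge with 54-4 at 4 uM final (EC80).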
ClpP mod: qHTS Assay for Activators of ClpP. ATP-dependent Clp protease proteolytic subunit (Bacillus subtilis (strain 168)), P80244. purified B. subtilis ClpP, FRET peptide cleavage, 20 min. Potency, µM (top dose mostly 57.5 µM), without a hit: at the top dose activity change, negative = active. 1.9% of 340,000 active. AID 651965, 2013; active = well fitted falling curve with a large enough effect; inconclusive = small, poorly fitted or top-dose-only effect; inactive = no such curve, though single readings can be large or run the other way; note: potency is the fitted concentration of half-maximal effect; the source files actives as falling curves though it sought activators and does not explain the sign; nearly all actives have a fitted effect of over 65% in size; many hits overshoot -100%
Target sequence (P80244 whole entry, looked up): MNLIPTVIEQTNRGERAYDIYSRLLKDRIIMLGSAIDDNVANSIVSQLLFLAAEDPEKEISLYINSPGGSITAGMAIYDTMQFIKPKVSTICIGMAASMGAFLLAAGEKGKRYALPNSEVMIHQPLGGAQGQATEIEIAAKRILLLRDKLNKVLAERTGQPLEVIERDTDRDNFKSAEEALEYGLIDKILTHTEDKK
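ClpP 10 microg/mL final, pH 8 Tris/KCl buffer with BSA, glycerol, Tween-20; compound pinned in; FRET-FV substrate; RT 20 min; Ex320/Em430; ΔFRET vs ADEP 5.8 microM, DMSO, no enzyme.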
Menin MLL FP FL: qHTS Assay for Inhibitors Targeting the Menin-MLL Interaction in MLL Related Leukemias: Competition With Fluorescein Labeled MLL-derived Peptide; Fluorescence polarization, fluorescein-MLL peptide displacement from menin; FP activity change, % at 61.4 µM; 290,000 tested, under 10 active; AID 1766, 2009; inconclusive = falling polarisation curve, or a change in total fluorescence; inactive = total fluorescence flat and polarisation flat or rising; no compound was filed as active; the % refers to the polarisation; negative = inhibition;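 note: % of control where 0% means no effect; inhibitors lower the polarisation; unlabelled MLL peptide was the positive control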
TRPML1 agonist: qHTS for Agonists of the Human Mucolipin Transient Receptor Potential 1 (TRPML1); Mucolipin-1 (Homo sapiens), Q9GZU1; TRPML1-expressing cells, Ca2+ dye fluorescence, FDSS; host cell line not named in the record; reference of the full effect not given here; 0.12% of 410,000 active; activation, % (no concentration beside the values); in the data active = activation above about 50%; inconclusive = about 30% to 50%; inactive = below about 30%; note: 0% is about no effect; the text of the record puts the active cut at 80%
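Tet-induced TRPML1-DL cells, 1,500 per well, cultured overnight, were loaded with a no-wash Ca2+ dye for 45–90 min. Calcium fluorescence was recorded on the FDSS for 110 s after compound addition, before the EC80 agonist (4 uM 54-4) was added.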
Sfp PPTase inh: qHTS Assay for Inhibitors of Bacillus subtilis Sfp phosphopantetheinyl transferase (PPTase) | 4'-phosphopantetheinyl transferase ffp (Bacillus subtilis), Q9F4F7 | Biochemical Sfp PPTase activity, qHTS | Potency, µM, without a hit: max response, negative = inhibition, hits mostly inhibitors | 3.5% of 310,000 active | AID 1490, 2009; active = well fitted inhibition curve with a large enough effect; inconclusive = small, poorly fitted or top-dose-only effect, or another doubt; inactive = no such curve, though single readings can be large or run the other way;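 note: the enzyme is Sfp with the accession as filed and its product quenches rhodamine fluorescence; potency is the fitted concentration of half-maximal effect; 0% = enzyme reaction without inhibitor and -100% = no enzyme wells; top concentration of the series not given in the record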
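After 15 min at room temperature with compound, 15 nM Sfp received 5 uM rhodamine-CoA plus 12.5 uM BHQ-2-ybbR (50 mM Hepes pH 7.6, 10 mM MgCl2). Rate came from the fluorescence difference over 30 min, ex 525/em 598 nm.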
The depositor's hits bear a star; ? = inconclusive; / = not tested or not shown; & = joins results of further samples; [ ] = dose if it differs, or a comment.

compound	PINK1 modulator	TRPV1 PAM	TRPML1 blocker	ClpP mod	Menin MLL FP FL	TRPML1 agonist	Sfp PPTase inh
CCCN(CCC)Cc1cc(=O)oc2cc(C)ccc12	2.2%	/	/	-0.2%	/	-0.6	/
Cc1cccc(NC(=O)c2cc(S(=O)(=O)N3CCc4ccccc43)cn2C)c1C	16%	-29	29	-0.9%	-0.4	-0.4	29%
COc1cc(OC)cc(C(=O)NCCc2csc3nc(-c4ccccc4F)nn23)c1	1.3%	/	20	-2.9%	/	2.1	/
Cc1cc(C(=O)N2CCN(C(c3ccccc3)c3ccccc3)CC2)on1	-0.2%	-17	3	0.7%	0.1	0.4	11%
COc1ccc2c(c1)[C@@H]1[C@H](CO2)[C@H](c2ccccc2)[C@]2(C)C(=O)Nc3ccc(C)cc3C(=O)N12	0.7%	11	5	-0.6%	/	1.4	/
Cn1c(SCC(=O)NNC(=O)c2ccc(Cl)cc2)nnc1-c1cccnc1	-0.4%	8	-7	1.3%	0.0	0.9	18%
Cc1ccc(C)c(Nc2cc(C(=O)NCc3cccnc3)c3ccccc3n2)c1	3.6%	0	5	/	0.2	1.4	9%
CN1CC2([N+](=O)[O-])CC=C(OCCO)C([N+](=O)[O-])(C1)C2 (configuration not stated)	-1.1%	-13	2	-8.3%	6.2	0.3	12%
COC(=O)c1cc(S(=O)(=O)N(C)Cc2ccco2)c[nH]1	1.8%	3	3	-0.4%	1.0	-0.9	20%
c1ccc(-c2nnc(CN3CCN(c4ccccc4)CC3)o2)cc1	0.3%&-0.6%	5	-6&-16	0.0%&2.3%	1.4	-0.4&-0.7	14%
CC(C)CN(C(=O)COC(=O)/C=C/c1ccc(Cl)c(Cl)c1)c1c(N)n(Cc2ccccc2)c(=O)[nH]c1=O	20%	0	-5	-2.4%	/	0.4	/
O=S(=O)(c1cc(F)ccc1F)N1CCN(c2ccccn2)CC1	1.2%	-9	-8	-7.1%	-2.7	-0.1	7%
N#Cc1nc(COc2ccc(Cl)cc2)oc1N1CCCCCC1	0.2%	1	8	0.4%	0.9	0.9	0%
Cn1c(=O)c2c(nc(N/N=C/c3cccs3)n2Cc2ccccc2)n(C)c1=O	1.3%	-3	-1	-0.7%	6.8	0.2	-12%
CCC(C)c1ccccc1NC(=S)Nc1cccnc1 (configuration not stated)	0.4%	4	17	-2.6%	3.3	-0.3	0%

Additional entries follow:
compound	PINK1 modulator	TRPV1 PAM	TRPML1 blocker	ClpP mod	Menin MLL FP FL	TRPML1 agonist	Sfp PPTase inh
CSCCC(NC(=O)c1ccc([N+](=O)[O-])cc1Cl)C(=O)OCC(=O)NC1CCCC(C)C1C (configuration not stated)	-2.4%	-25	-1	-0.4%	3.1	-0.5	-1%
O=C(NCc1ccco1)c1ccccc1-c1nc(-c2ccccc2)no1	0.0%[38.3 µM]	3	-4	-0.9%	3.2	0.1	4%
CCOC(=O)COn1c(=O)c(=O)n(OC)c2ccccc21	-2.4%	1	1	-2.1%	2.9	5.0	-13%
CCCn1nc(C(=O)N2CCN(c3ccccn3)CC2)c2ccccc2c1=O	-2.6%	/	2	/	/	1.2	/
CCOc1ccc(OCC)c(NC(=O)CSc2nnc(Cn3cnc4ccccc43)n2C)c1	-1.2%[38.3 µM]	8	-7	-0.2%	1.1	-0.7	28%
Cc1cc(-c2nn(-c3ccccc3F)cc2CN2CCCC(O)C2)c(C)s1 (configuration not stated)	0.2%	-10	71	-2.7%	3.2	0.1	13%
O=C(C1CCC(Cn2c(=S)[nH]c3ccccc3c2=O)CC1)N1CCOCC1 (configuration not stated)	0.2%[38.3 µM]	16	-9	-4.3%	4.4	-0.4	-2%
COc1cc(C(C#N)N2CCC(c3ccccc3)=N2)ccc1O (configuration not stated)	-0.5%	0	11	/	0.2	-0.1	4%
O=C(NCc1ccc2c(c1)OCO2)C1CC(=O)N(c2ccc(Cl)cc2)C1 (configuration not stated)	-1.9%	16	2	/	1.9	1.0	23%
O=C(NC(c1ccc(Cl)cc1)c1cnccn1)C1CCN(CCCc2ccccc2)CC1 (configuration not stated)	0.1%	/	/	-1.7%	/	-0.1	/
c1coc(-c2nc3nc4ccccc4nc3n2-c2ccc3c(c2)OCCO3)c1	5.1%	8	-1	-4.3%	10	-0.6	-3%
C1CCC2(CC1)OCC1(CO2)COC2(CCCCC2)OC1	1.1%	7	-9	-2.0%	1.6	0.5	15%
CCOC(=O)C1CCN(S(=O)(=O)c2ccc(C)c(C(=O)NC3CCCCC3)c2)CC1	1.7%	5	13	1.3%	-1.7	1.1	2%
CCc1nc(C)ccc1OCC(=O)NCCCN(C)C	0.5%[38.3 µM]	0	7	1.8%	1.3	-0.3	?
COc1cc(C=CC(=O)c2ccccc2)cc(OC)c1OC	-1.0%	/	/	-1.1%	/	-1.6	/

Other structures follow:
compound	PINK1 modulator	TRPV1 PAM	TRPML1 blocker	ClpP mod	Menin MLL FP FL	TRPML1 agonist	Sfp PPTase inh
Cn1cc(C(=O)NCc2ccc(Cl)cc2)c(=O)c2cc(S(=O)(=O)N3CCOCC3)ccc21	4.3%	1	5	2.0%	0.1	-0.5	-3%
Cc1cnn(C(=S)NCc2ccco2)c1	3.6%	1	2	4.2%	?	-0.2	?
CCCCC(NC(=O)CCc1c(C)c2cc3c4c(oc3c(C)c2oc1=O)CCCC4)C(=O)O (configuration not stated)	-3.1%	4	-10	?	-0.1	1.2	2%
CCOC(=O)N1CCN(CC(O)COCc2ccc(OC)c(OC)c2)CC1 (configuration not stated)	-0.7%	-14	9	-2.7%	-0.2	2.6	8%
O=C(Nc1cccn(Cc2c(Cl)cccc2Cl)c1=O)C1CC1	3.7%	-9	-6	/	-4.4	3.0	4%
Cc1occc1C(=O)Nc1nccs1	1.9%	2	-9	-0.3%	9.4	-1.0	3%
Cc1ccc(C(=O)N/C(=C\c2cn(S(=O)(=O)N(C)C)c3ccccc23)C(=O)NCCCn2ccnc2)cc1	0.4%&-3.7%	1	68&-9	0.9%&-3.2%	-0.1	0.3&0.3	5%
COc1ccc(OC)c(NC(=O)Cn2c(CCC(=O)O)ccc2-c2ccccc2)c1	-1.1%&-1.6%	7	-9&30	-2.2%&-4.4%	2.2	0.9&2.8	7%
CCOC(=O)Cc1csc(NC(=O)c2c(O)c3c(n(CC(C)C)c2=O)CCCC3)n1	4.9%	-2	-14	/	7.0	0.2	22%
O=C(Nc1nnc(-c2ccncc2)s1)C1CCCO1 (configuration not stated)	2.7%	-5	16	6.3µM*	-2.4	0.3	-58%
CCOC(=O)C1=C(C)OC(N)=C(C#N)C1c1cccs1 (configuration not stated)	0.0%	-6	-8	/	8.9	0.7	-30%
CCNc1ccc(/C=C2\C=Cc3ccccc32)cc1	0.8%	/	/	1.3%	/	-0.3	/
CCc1cccc(N(C(=O)c2csnn2)C(C(=O)NC(C)(C)C)c2ccccn2)c1 (configuration not stated)	0.5%	-7	-12	/	-5.6	0.5	0%
CC(NC(=O)C1CCN(S(=O)(=O)c2ccc3c(c2)oc(=O)n3C)CC1)c1ccccc1 (configuration not stated)	5.0%	/	-4	-0.1%	/	-0.7	/
Cc1ccc(NC(=O)Nc2ccc3oc(C)nc3c2)cc1	-1.4%	18	-9	5.7%	0.6	1.1	4%

Three entries already listed, arranged by heavy-atom count, descending.
compound	PINK1 modulator	TRPV1 PAM	TRPML1 blocker	ClpP mod	Menin MLL FP FL	TRPML1 agonist	Sfp PPTase inh
COc1ccc(OC)c(NC(=O)Cn2c(CCC(=O)O)ccc2-c2ccccc2)c1	-1.1%&-1.6%	7	-9&30	-2.2%&-4.4%	2.2	0.9&2.8	7%
Cc1ccc(NC(=O)Nc2ccc3oc(C)nc3c2)cc1	-1.4%	18	-9	5.7%	0.6	1.1	4%
Cc1cnn(C(=S)NCc2ccco2)c1	3.6%	1	2	4.2%	?	-0.2	?

Following part
compound	PINK1 modulator	TRPV1 PAM	TRPML1 blocker	ClpP mod	Menin MLL FP FL	TRPML1 agonist	Sfp PPTase inh
COC(=O)C1CCN(Cc2cc(=O)oc3cc(C)c(Cl)cc23)CC1	-1.6%	-25	41	-0.3%	7.2	-1.0	6%
Cc1ccc(C)c(OCc2cc(C(=O)N3CCOCC3)no2)c1	-1.5%	-25	8	-2.4%	-0.2	0.1	16%
CC(=O)N1CCN(C(=O)c2ccc3oc(CCCc4ccccc4)nc3c2)CC1	-1.0%	3	11	0.4%	3.6	-0.5	8%
Cc1ccccc1OCCNC(=O)/C=C/c1ccc([N+](=O)[O-])cc1	0.2%	0	9	-1.4%	6.8	1.1	-8%
O=C(CCNS(=O)(=O)c1ccc(Br)cc1)N1CCCCCCC1	-0.4%	-23	-12	-13%	/	0.0	/
CN(NS(=O)(=O)c1ccc([N+](=O)[O-])cc1)c1ccccc1	0.2%	/	-9	-0.8%	/	-0.5	/
Clc1ccccc1-c1nc(/C=N/N2CCOCC2)c2ccccn12	1.8%	6	-3	-0.3%	2.6	-1.1	89µM*
Nc1nc(COC(=O)C2CC(=O)N(Cc3ccccc3)C2)nc(Nc2ccccc2)n1 (configuration not stated)	6.3%	1	6	0.1%	/	0.6	/

Source: PubChem BioAssay (National Center for Advancing Translational Sciences (NCATS))
